Source: PubChem BioAssay
PINK1 modulator: modulators of PINK1 expression; Potency, µM (series often up to 76.6 µM), for the others: top-dose activation (PINK1 increase), most hits filed as activators; 0.2% of 410,000 active; PINK1 immunofluorescence, high-content cytometry, 24 h; AID 624263; active = well fitted activation curve with a large enough effect; inconclusive = small, poorly fitted or top-dose-only effect; inactive = flat fitted curve, though single readings scatter; cell line not stated here;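 note: potency is the fitted concentration of half-maximal effect; % of control where 0% means no effect; nearly all actives have a fitted effect of over 65% in size; a mitochondrial uncoupler was the plate control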
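Stable cell line, 250 cells/well, 12 h attachment; compounds pinned at 5 concentrations, 24 h; CCCP control. Fixed with nuclear dye, primary antibodies 12 h at 10 degrees C, secondary plus cell stain; laser-scanning cytometer read.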
ClpP mod: qHTS Assay for Activators of ClpP | ATP-dependent Clp protease proteolytic subunit (Bacillus subtilis (strain 168)), P80244 | purified B. subtilis ClpP, FRET peptide cleavage, 20 min | 1.9% of 340,000 active | Potency, µM (titrated, usually from 57.5 µM), for inactives: at the top dose activity change, negative = active | AID 651965, 2013; active = well fitted falling curve with a large enough effect; inconclusive = small, poorly fitted or top-dose-only effect; inactive = no such curve, though single readings can be large or run the other way; note: potency is the fitted concentration of half-maximal effect; the source files actives as falling curves though it sought activators and does not explain the sign; nearly all actives have a fitted effect of over 65% in size; many hits overshoot -100%
Target sequence (P80244 whole entry, looked up): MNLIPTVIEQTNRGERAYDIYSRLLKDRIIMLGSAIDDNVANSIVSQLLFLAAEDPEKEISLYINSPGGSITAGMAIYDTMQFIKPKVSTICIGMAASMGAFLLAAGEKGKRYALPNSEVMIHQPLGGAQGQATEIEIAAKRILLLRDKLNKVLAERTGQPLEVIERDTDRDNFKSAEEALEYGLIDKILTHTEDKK
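Buffer: 100 mM Tris/HCl pH8, 100 mM KCl, 0.05% low protease BSA, 2.5% glycerol, 0.01% Tween-20. ClpP 10 microg/mL final; 20 min RT; delta FRET normalized to ADEP and DMSO controls.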
gsp ag: agonists of gsp mutant (McCune-Albright syndrome). gsp mutant cells, cAMP HTRF, 30 min; control for the full effect not named in the record. Potency, µM (highest dose often 76.9 µM), for the others: at the top dose activation (cAMP increase), actives largely listed as activators. 0.13% of 340,000 active. AID 624287; active = well fitted activation curve with a large enough effect; inconclusive = small, poorly fitted or top-dose-only effect, or another doubt; inactive = no such curve, though single readings can be large or run the other way; cell line not stated here;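 note: phosphodiesterase inhibitor Ro 20-1724 added with compounds to block cAMP breakdown; potency is the fitted concentration of half-maximal effect; nearly all actives have a fitted effect of over 60% in size; about a fifth of the inactives were tested at one dose only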
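Cells stably selected in G418 were plated at 2000/well, grown 16-24 hr, then given compounds in DMSO with the PDE inhibitor […] (300 uM solution added) for 30 min at 37C; cAMP was read by HTRF.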
Menin-MLL FL inh: displaces fluorescein MLL peptide from human menin; Fluorescence polarization, fluorescein-MLL peptide displacement from menin; FP activity change, % at 61.4 µM; 290,000 tested, under 10 active; AID 1766; inconclusive = falling polarisation curve, or a change in total fluorescence; inactive = total fluorescence flat and polarisation flat or rising; no compound was filed as active; the % refers to the polarisation; negative = inhibition;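 note: % of control where 0% means no effect; inhibitors lower the polarisation; unlabelled MLL peptide was the positive control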
Sfp PPTase inh: Sfp phosphopantetheinyl transferase inhibition. Q9F4F7. Biochemical Sfp PPTase activity, qHTS. Potency, µM, without a hit: max response, negative = inhibition, hits mostly inhibitors. 3.5% of 310,000 active. AID 1490; active = well fitted inhibition curve with a large enough effect; inconclusive = small, poorly fitted or top-dose-only effect, or another doubt; inactive = no such curve, though single readings can be large or run the other way;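 note: the enzyme is Sfp with the accession as filed and its product quenches rhodamine fluorescence; potency is the fitted concentration of half-maximal effect; 0% = enzyme reaction without inhibitor and -100% = no enzyme wells; top concentration of the series not given in the record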
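With Hepes-Na pH 7.6 buffer containing 10 mM MgCl2, Sfp (15 nM) modified BHQ-2-YbbR (12.5 uM) using rhodamine-CoA (5 uM). Two reads 30 minutes apart at 525/598 nm yielded each well's rate.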
gsp antag: gsp mutant antagonism; gsp-mutant cells, cAMP HTRF, 30 min; control for the full effect not named in the record; Potency, µM (top dose mostly 76.9 µM), for the others: top-dose activity change, negative = inhibition, most hits filed as inhibitors; 0.4% of 340,000 active; AID 624288; active = falling curve of any shape with a large fitted effect; inconclusive = falling curve, mostly with a smaller effect; inactive = flat or rising curve; cell line not stated here;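 note: intracellular cAMP measured with PDE inhibitor Ro 20-1724 present during compound exposure; potency is the fitted concentration of half-maximal effect; % is set by controls: 0 for no effect and ±100 for the full control effect; nearly all actives have a fitted effect of over 65% in size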
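Cells, 2000/well, grown 16–24 h in DMEM 10% FBS with 0.5 mg/ml G418, then compounds plus […] (300 uM addition stock), 30 min at 37C. cAMP read by HTRF (cAMP-d2 and anti-cAMP antibody-K in lysis buffer) after 30 min RT.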
D2 ag: activates the human D2 dopamine receptor; DiscoveRx PathHunter D2 beta-arrestin, luminescence, 90 min; 100% = 57 uM dopamine signal; activation, % (no concentration beside the values); 0.084% of 360,000 active; in the data active = activation above about 40%; inconclusive = about 15% to 40%; inactive = below about 15%; note: compound concentration not given in the record; the text of the record calls up to 30% inactive
Target sequence (P14416 whole entry, looked up): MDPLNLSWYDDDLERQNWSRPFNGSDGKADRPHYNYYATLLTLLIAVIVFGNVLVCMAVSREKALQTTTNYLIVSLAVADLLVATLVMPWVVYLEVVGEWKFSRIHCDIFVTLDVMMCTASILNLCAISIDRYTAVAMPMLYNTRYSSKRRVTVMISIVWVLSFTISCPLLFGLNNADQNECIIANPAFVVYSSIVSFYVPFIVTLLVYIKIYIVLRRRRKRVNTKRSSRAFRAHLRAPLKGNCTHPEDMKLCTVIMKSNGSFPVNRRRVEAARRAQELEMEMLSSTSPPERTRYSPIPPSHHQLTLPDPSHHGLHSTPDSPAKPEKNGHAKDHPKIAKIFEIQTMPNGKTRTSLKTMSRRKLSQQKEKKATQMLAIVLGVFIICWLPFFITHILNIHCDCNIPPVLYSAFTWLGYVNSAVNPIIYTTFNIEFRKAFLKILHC
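Agonist mode: compounds alone added to overnight-plated D2 PathHunter cells for 90 min at 37 C, with 57 uM final dopamine (EC100) defining full response. Beta-arrestin recruitment detected by chemiluminescent reagent, read after 1 h at ambient temperature.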
* marks the source's active call; other numbers are inactive results; ? = inconclusive; · = not tested or not shown; & = joins results of further samples; [ ] = remark or other dose.

Sequence of screens – PINK1 modulator	ClpP mod	gsp ag	Menin-MLL FL inh	Sfp PPTase inh	gsp antag	D2 ag
#1 CCNC(=O)C1(C)CCCN(C(=O)c2c(C)noc2C)C1 (stereo unspecified)
  -0.8%	1.2%	·	·	·	·	-6.4
#2 CCOc1ccc(C(=O)Nc2ccc(S(=O)(=O)Nc3nccc(C)n3)cc2)cc1OCC
  2.9%	·	4%	-4.5	21%	-7%	-1.7
#3 Cc1c(S(=O)(=O)Nc2ccc3c(c2)OCCO3)c(=O)n(C)c(=O)n1C
  -0.4%	1.7%	?	0.9	3%	0%	-3.6
#4 O=C(CCc1nnc(-c2ccccc2)o1)NCc1cc(F)ccc1F
  0.2%	·	-9%	1.5	7%	6%	1.5
#5 CCOCCC(=O)Nc1ccc2c(c1)c(=O)n(C)n2CC=C(C)C
  7.6%	4.9%	·	·	·	·	-1.6
#6 CC1CC(=O)C(C2c3ccccc3CCN2C(=O)CCl)C(=O)C1 (stereo unspecified)
  2.1%	0.1%	15%	10	-8%	5%	-6.5
#7 Cn1c(N)c(C(=O)COC(=O)c2cccnc2Cl)c(=O)n(C)c1=O
  -0.1%	·	8%[15.4 µM]	-6.0	-6%	·	1.1
#8 CC(C)CN(CC(C)C)C(=O)CN1C(=O)NC2(CCc3ccccc3C2)C1=O (stereo unspecified)
  -0.4%	-4.2%	0%	-1.0	18%	-1%	-2.9
#9 CCOC(=O)N1CCN(C(=O)COc2cccc3c2CCN(Cc2ccc(F)cc2)C3=O)CC1
  0.6%	-2.4%	-21%	2.2	9%	-5%	-2.7
#10 Cc1ccc(S(=O)(=O)N2CCOCC2)cc1NC(=O)COC(=O)CNC(=O)c1ccccc1
  0.4%	2.1%	6%	-1.0	32%[activator]	17%	-0.2
#11 CN(C(=O)CN1CCC(NC(=O)C2CCCCC2)CC1)C1CCCCC1
  -1.3%[38.3 µM]	-0.9%	-7%	4.3	-6%	9%	0.3
#12 COc1cc(/C=N/NC(=O)CN2CCOCC2)ccc1OCc1ccccc1
  2.7%	-14%	22%	2.7	3%	2%	-1.4
#13 COc1ccc(NC(=O)CSc2nnnn2C2CCCC2)cc1S(=O)(=O)N1CCOCC1
  -0.7%	-0.8%	?	·	·	·	-1.3
#14 COc1ccc(C)cc1N(CC(=O)Nc1ccc(S(=O)(=O)N2CCOCC2)cc1)S(C)(=O)=O
  4.3%	-0.6%	-3%[15.4 µM]	0.3	25%	3%	-1.1
#15 CCn1c(C)cc(C(=O)CSc2nnc(C3CC3)n2C2CC2)c1C
  -1.2%	1.1%	-34%[inhibitor]	·	·	·	-1.3
#16 CC1=C(C(=O)OC(C)C)C(C)C(C(=O)OC(C)C)=C(C)N1
  3.5%[38.3 µM]	-26%	-2%	0.7	11%	-12%	-2.0
#17 Cc1ccc2nc(N3CCC(C(=O)NC4CCCCC4)CC3)sc2c1
  3.9%	2.2%	33%	·	15%	15%	-3.3
#18 COc1ccc2c(c1)CC[C@@H]1[C@@H]2CC[C@]2(C)C(=O)CC[C@@H]12
  0.6%	-0.9%	·	6.3	50µM*	0%	-9.2
#19 CC(C)Oc1ccc(C2NC(=O)NC2=O)cc1 (stereo unspecified)
  -2.2%	-0.7%	2%	-5.5	23%	9%	-2.5
#20 Cc1ccc(N2CC(NS(=O)(=O)c3cccnc3)CC2=O)cc1C (stereo unspecified)
  -0.2%	·	1%[15.4 µM]	·	·	12%	0.5

Profiles, quoted from the list:
`CC1CC(=O)C(C2c3ccccc3CCN2C(=O)CCl)C(=O)C1` (stereo unspecified) is listed as PINK1 modulator = 2.1%; ClpP mod = 0.1%; gsp ag = 15%; Menin-MLL FL inh = 10; Sfp PPTase inh = -8%; gsp antag = 5%; D2 ag = -6.5
`Cn1c(N)c(C(=O)COC(=O)c2cccnc2Cl)c(=O)n(C)c1=O` is listed as PINK1 modulator = -0.1%; ClpP mod = ·; gsp ag = 8%[15.4 µM]; Menin-MLL FL inh = -6.0; Sfp PPTase inh = -6%; gsp antag = ·; D2 ag = 1.1

More results:
Sequence of screens – PINK1 modulator	ClpP mod	gsp ag	Menin-MLL FL inh	Sfp PPTase inh	gsp antag	D2 ag
#21 CCc1ccc(OCC2c3cc(OC)c(OC)cc3CCN2C(C)=O)cc1 (stereo unspecified)
  0.5%	0.7%	-2%	1.7	1%	-1%	3.0
#22 CC(=O)c1ccc(Oc2cc(C(F)(F)F)cnc2C(N)=O)cc1
  0.2%	·	-22%[15.4 µM]	3.6	-1%	2%	-5.2
#23 Cc1cccc(NC(=O)Cn2c(=O)n(CC3CCCO3)c(=O)c3ccccc32)c1 (stereo unspecified)
  -2.0%	·	-6%	-1.7	-4%	-7%	-1.1
#24 Fc1cccc(-c2cc3nc4c(c(N5CCOCC5)n3n2)CCCC4)c1
  2.9%[38.3 µM]	?	6%	0.7	?	-21%	-1.3
#25 Cc1ccc(NC(=S)N(CCN2CCCCC2)Cc2ccco2)cc1C
  9.6%	·	?	-0.5	-6%	4%	-0.8
#26 COc1ccccc1P(=O)(Cc1ccccc1)c1ccccc1 (stereo unspecified)
  -0.1%	·	-23%	0.1	11%	-6%	-0.5
#27 CN1CCN(NC(=S)Nc2ccccc2)CC1
  1.7%	·	-2%[15.4 µM]	-2.3	5%	14%	-3.9
#28 CC(C)C1=C2CCCCC2NC(=O)N1 (stereo unspecified)
  ·	-20%	-24%	0.1	1%	-1%	1.1
#29 CCOc1ccc(-c2nc(CCl)cs2)cc1
  -1.6%	3.5%	1%	3.4	9%	2%	-2.7
#30 COc1ccc(C(CNC(=O)CSc2ccccc2C)N(C)C)cc1 (stereo unspecified)
  -0.4%	·	-1%[15.4 µM]	-20	11%	-2%	-1.9
#31 c1ccc2c(Nc3nc4c(s3)CCCC4)cccc2c1
  4.7%	-11%	12%	4.9	50µM*	2%	0.9
#32 CCOC(=O)C1CCCN(c2c(NCCCN3CCCC(C)C3)c(=O)c2=O)C1 (stereo unspecified)
  1.1%	-1.7%	?	-15	7%	-6%	-1.3
#33 COc1ccc(CC(=O)NNC(=O)c2cc(C)[nH]n2)cc1
  -0.9%	-3.6%	0%[15.4 µM]	1.7	-15%	6%	3.8
#34 CN1C(=O)CC(NNC(=O)c2ccc(Cl)cc2)C1=O (stereo unspecified)
  ·	1.8%	-35%[inhibitor]	-0.6	-6%	3%	-3.7
#35 Cc1oc(C(C)(C)C)cc1C(=O)Nc1ccc(N2CCOCC2)cc1
  0.2%	0.1%	3%[15.4 µM]	0.9	0%	11%	-2.3
#36 CC(=O)c1cccc(S(=O)(=O)NCC2CCCCC2)c1
  -0.1%	-1.4%	25%[15.4 µM]	0.5	6%	-14%	-2.4
#37 COc1ccc(CCCC(=O)N/N=C\c2cccs2)cc1
  -1.0%	·	?	-1.1	14%	-2%	-1.1
#38 Cc1cccc(OCC(=O)Nc2ccc(NC(=O)c3ccccc3)cc2)c1
  3.4%	-14%	5%[15.4 µM]	4.2	9%	10%	1.2
#39 CCc1nn(CCCC(=O)NCc2ccccc2Br)c(=O)c2cc3occc3n12
  -0.9%&0.8%	-8.0%&-1.1%	?	5.9	-1%	17%	1.8
#40 COc1ccc(NC(=O)CCN2C(=O)c3ccccc3C2=O)cc1
  1.6%	0.1%	15%	2.2	21%	1%	-1.7
#41 COc1cc(-c2nc3cnccn3c2Nc2c(C)cccc2C)ccc1O
  ·	?	12%	0.3	-18%	2%	-0.4
#42 O[C@@H]1[C@@H](O)C=C2CCN3Cc4cc5c(cc4[C@H]1C23)OCO5 (stereo partly specified)
  -0.8%	-3.0%	·	·	·	0%	-2.2
#43 COCCn1c(SCC#N)nnc1-c1ccc([N+](=O)[O-])cc1
  -2.1%	·	19%	-2.3	17%	9%	3.3
#44 Cc1onc(-c2ccccc2)c1C(=O)NCc1ccco1
  3.3%	-25%	4%	1.1	?	7%	-1.3
#45 c1ccc(Cn2nnnc2C(c2cccs2)N2CCCCCC2)cc1 (stereo unspecified)
  1.5%[38.3 µM]	0.2%	6%	0.9	-3%	-23%	-2.2
#46 O=[N+]([O-])c1ccccc1S(=O)(=O)N1CCCC(C(F)(F)F)C1 (stereo unspecified)
  0.3%	-2.4%	15%[15.4 µM]	0.3	3%	1%	-0.8
#47 O=C(CCNC(=O)c1ccccc1Cl)NN=Cc1ccco1
  -0.2%	0.5%	0%[15.4 µM]	·	·	4%	-1.2
#48 Cc1cccc(NC(=O)c2cc(S(=O)(=O)c3ccccc3)ccc2Cl)c1
  -1.6%	-2.4%	28%	-1.4	20%	-18%	-0.9
#49 Cc1ccccc1-n1c(Cn2c(=O)sc3ccccc32)nnc1SCC(=O)Nc1nccs1
  0.3%	3.1%	?	-0.4	13%	-2%	-0.2
#50 COc1ccccc1NC(=O)COC(=O)Cc1c[nH]c2ccccc12
  0.2%	1.2%	20%[15.4 µM]	-1.8	0%	-3%	2.5
#51 CCOC(=O)C1ON2CCCCC2C1(O)C(F)(F)F (stereo unspecified)
  0.8%	·	-6%	-0.5	19%	11%	2.0
#52 O=C(Nc1ccccc1N1CCCCC1)c1ccc(F)cc1
  5.7%	0.8%	-37%[inhibitor]	0.5	-16%	-12%	-4.1
#53 COc1ccc(NC(=O)COc2cccc3c2OC(C)(C)C3)c(OC)c1
  1.4%	1.4%	-7%[15.4 µM]	·	·	-14%	-5.1
#54 CC(C)C(=O)Nc1nnn(C)n1
  0.3%	-3.2%	-11%	8.5	14%	10%	1.0
#55 COc1ccc(CN2C(=O)C(CC(=O)NCC3CCCCC3)CC(C(=O)N(C(C)C)C(C)C)=C2C)cc1 (stereo unspecified)
  3.6%	0.5%	15%	·	·	·	-1.0
#56 COCCN(CC(=O)NC1CCCCC1)C(=O)c1csnn1
  -1.4%[38.3 µM]	0.0%	-14%	-0.8	5%	-16%	-3.6
